High-throughput results as filed in PubChem BioAssay.
Vif A3G – inhibitors of Vif binding to APOBEC3G peptide, primary screen, biochemical, TR-FRET, GST-Vif 1-94, biotin-A3G peptide, dose response retest (AID 1117319); TR-FRET GST-Vif / biotin-A3G peptide binding; higher % means a stronger effect; test concentration not given here; strong numbers were not always called active; inhibition, %, or IC50 in µM where a hit was titrated; hit rate 0.57% among 260,000;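 active means above the screen mean plus three standard deviations and confirmed in dose response; inconclusive means results disagree or hit not tested in dose response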;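 further: Vif residues 1-94 fused to GST binding biotinylated APOBEC3G peptide 110-148; 0% = full assay without inhibitor and 100% = GST in place of GST-Vif; retest series ran down from 100 µM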
HNF4A DNA FP – change in binding of human HNF4 alpha to DNA. P41235. HNF4a-FITC DNA binding, fluorescence polarization, 1 h. activity change, % at 10 µM. hit rate 0.3% among 360,000; in the data active means activity change above about 30%, passing the limit was not always enough;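 further: controls were the assay level and a saturating level of protein; the project sought stronger binding though the title names inhibitors; some compounds called inactive have numbers as strong as hits; positive values seem to mean higher polarization but the record does not say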
Target sequence (P41235 whole entry, looked up): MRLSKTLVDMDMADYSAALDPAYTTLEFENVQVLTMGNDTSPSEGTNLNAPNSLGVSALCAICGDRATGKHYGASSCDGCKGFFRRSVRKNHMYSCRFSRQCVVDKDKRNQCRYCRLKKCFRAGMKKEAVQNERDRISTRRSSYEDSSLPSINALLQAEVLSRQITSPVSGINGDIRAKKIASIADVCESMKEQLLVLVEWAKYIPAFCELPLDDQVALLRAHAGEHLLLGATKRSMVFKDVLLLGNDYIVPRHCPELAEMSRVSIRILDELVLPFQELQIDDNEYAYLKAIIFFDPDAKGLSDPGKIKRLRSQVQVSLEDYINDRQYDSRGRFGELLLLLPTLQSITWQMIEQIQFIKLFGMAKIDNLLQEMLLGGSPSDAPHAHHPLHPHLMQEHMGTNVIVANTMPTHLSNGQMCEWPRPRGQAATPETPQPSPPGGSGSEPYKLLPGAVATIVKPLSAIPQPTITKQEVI
Ecoli growth – blocks Escherichia coli growth; OD600, 23 h; active compounds read low; OD600 absorbance (test concentration not listed); hit rate 0.21% among 330,000;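 active means OD600 absorbance below the run mean of sample wells minus 3.6 SD, in any replicate, cut at about 0.56 in these data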;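 further: stock transfer was 300 nL into about 60 µL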
Ecoli rRNA inh – selective bacterial rRNA inhibition in E. coli. E. coli WT GFP vs humanized-ribosome RFP mutants, fluorescence, 24 h; active compounds read low; DMSO median 0, no signal -100. GFP signal change (wild-type ribosome), % (test concentration not listed). hit rate 1.6% among 350,000. AID 720706;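 active means significant combined selectivity score with lowered wild-type GFP, culture density cut under 30%, mutant RFP and density less affected; inactive means any of these conditions unmet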; further: one replicate is shown; some compounds called inactive have numbers as strong as hits
MLL AF4-AF9 inh – inhibitors of human MLL-AF4/AF9 interaction | AlphaScreen, biotin-AF4 peptide binding to FLAG-AF9 | inhibition, % at 10 µM | hit rate 0.47% among 350,000 | AID 651704;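 active means every replicate reaching a set inhibition limit, whatever the replicate mean, cut at about 25% in these data; inconclusive means mean inhibition reaches that limit but some replicates miss it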;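 further: 0% = plate neutral control median and 100% = total signal loss; the record names both 10 and 1 µM as test concentration; the first replicate is given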
FGF22 binding – FGF22 (human) thermal shift binding; recombinant FGF22 thermal shift, SYPRO orange fluorescence; percent of sucrose octasulfate shift, DMSO zero; calls only at 9.99 µM; hit rate 1.5% among 340,000;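 active means melting point raised past a set limit in the mean and every replicate; inconclusive means no clear call; three in four hits are not shown here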
Target sequence (Q9HCT0 whole entry, looked up): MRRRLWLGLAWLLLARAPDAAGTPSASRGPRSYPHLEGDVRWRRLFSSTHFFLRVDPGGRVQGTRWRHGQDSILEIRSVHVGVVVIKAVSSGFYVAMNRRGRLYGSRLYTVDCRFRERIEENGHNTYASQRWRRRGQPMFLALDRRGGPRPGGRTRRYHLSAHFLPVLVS
ALR H2O2 inh – inhibitors of human sulfhydryl oxidase ALR; hit rate 3.8% among 290,000; inhibition, % (no concentration beside the values); P55789; purified ALR, DTT oxidation, H2O2 HRP-luminol luminescence;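 active means mean and each replicate at 75% or more; inconclusive means only one of the two met; inactive means neither met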;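 further: stock transfer was 7.5 nL into about 7.5 µL; 0% = neutral wells and 100% = wells with inactivated enzyme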
Target sequence (P55789 whole entry, looked up): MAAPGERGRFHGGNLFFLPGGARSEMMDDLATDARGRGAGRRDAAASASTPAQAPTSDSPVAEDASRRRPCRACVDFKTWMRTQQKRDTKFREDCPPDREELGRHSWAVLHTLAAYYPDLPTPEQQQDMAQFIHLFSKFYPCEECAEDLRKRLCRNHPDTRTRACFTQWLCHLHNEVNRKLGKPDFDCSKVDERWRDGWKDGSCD
Ecoli rRNA inh OD600 – further read-out of Ecoli rRNA inh, marked with its call; OD600 change, %; measured here: OD600 growth;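 optical density of the mix in the first replicate; 0 = DMSO median and -100 = no signal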
Ecoli rRNA inh RFP – second read-out of Ecoli rRNA inh, no call of its own (marks repeat the call); RFP signal change, %; measured here: RFP humanized mutant strains;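 first replicate; 0 = DMSO median and -100 = no signal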
* hit, by the source's call; i = inactive; ? = inconclusive; . = no result given. The list is partial. The share of hits here may be higher or lower than overall.

SMILES	Vif A3G	HNF4A DNA FP	Ecoli growth	Ecoli rRNA inh	Ecoli rRNA inh OD600	Ecoli rRNA inh RFP	MLL AF4-AF9 inh	FGF22 binding	ALR H2O2 inh
Cc1occc1C(=O)NNC(=O)Cc1ccccc1	-2%	3.3	0.71	.	.	.	.	.	-5
COc1ccc(S(=O)(=O)NCC2CCCN(C(=O)CCC(F)(F)F)C2)cc1 (centres undefined)	.	-3.9	0.67	6	5	-0.7	-8.7	i	.
COc1cccc(C2C(C(=O)c3cccs3)=C(O)C(=O)N2CCN2CCOCC2)c1 (centres undefined)	1%	-0.1	0.62	-35	-38	-18	-2.5	i	0
O=C(CSc1ccc(-c2nc3ccccc3[nH]2)cn1)Nc1ccc(S(=O)(=O)N2CCCC2)cc1	-5%	1.1	.	.	.	.	.	.	1
COC(=O)C1=C(C(=O)OC)[C@@H]2Nc3ccccc3[C@@]23C[C@@H](C(=O)OC)N(C(=O)COCc2ccccc2)C3=N1	.	-2.5	.	2	-2	5.0	-1.8	i	-11
O=C(C[C@H]1CC[C@H]2[C@@H](COC[C@H](O)CN2CC2CCOCC2)O1)NCC1CC1	.	.	.	3	6	0.9	0.6	i	.
CCOC(=O)CC(=O)CSc1nc2c(sc(=S)n2-c2ccc(OCC)cc2)c(=O)[nH]1	?	-1.0	0.7	-28*	-17*	-3.9*	-2.8	.	96*
O=C(CCN1CCCCC1)NCC[C@@H]1CC[C@@H](NC(=O)C2CCC2)[C@H](CO)O1	.	.	.	2	4	0.4	-2.8	i	.
COc1ccccc1C(=O)Nc1ccc2c(c1)OC[C@@H](C)N(C)C[C@H](C)[C@H](OC)CN(C)C2=O	.	.	.	-2	1	-0.2	-1.2	i	.
COc1cccc(S(=O)(=O)N2CCCCN3[C@H](C2)[C@@H](c2ccc(C#CCC(C)C)cc2)[C@@H]3CO)c1	.	.	.	-2	-9	4.7	-2.9	i	.

The final 3 entries of the part above lead into the next.
SMILES	Vif A3G	HNF4A DNA FP	Ecoli growth	Ecoli rRNA inh	Ecoli rRNA inh OD600	Ecoli rRNA inh RFP	MLL AF4-AF9 inh	FGF22 binding	ALR H2O2 inh
O=C(CCN1CCCCC1)NCC[C@@H]1CC[C@@H](NC(=O)C2CCC2)[C@H](CO)O1	.	.	.	2	4	0.4	-2.8	i	.
COc1ccccc1C(=O)Nc1ccc2c(c1)OC[C@@H](C)N(C)C[C@H](C)[C@H](OC)CN(C)C2=O	.	.	.	-2	1	-0.2	-1.2	i	.
COc1cccc(S(=O)(=O)N2CCCCN3[C@H](C2)[C@@H](c2ccc(C#CCC(C)C)cc2)[C@@H]3CO)c1	.	.	.	-2	-9	4.7	-2.9	i	.
COc1ccc(C)c(S(=O)(=O)Nc2ccc(OCC(=O)O)cc2)c1	5%	-0.5	0.72	3	6	-1.1	-3.2	i	1
N#Cc1c(N2CCN(c3ccc([N+](=O)[O-])cc3)CC2)[n+](=O)c2ccc(Cl)cc2n1[O-]	.	-9.8	.	-10	-1	7.0	-6.8	i	.
C[C@@H]1CCCCO[C@@H](CN(C)Cc2ccc(Cl)c(Cl)c2)[C@@H](C)CN([C@H](C)CO)C(=O)c2cc(NS(=O)(=O)c3cccs3)ccc2O1	.	.	.	-2	8	-0.9	-4.3	i	.
C[C@@H]1CN([C@H](C)CO)S(=O)(=O)c2ccc(-c3cncnc3)cc2O[C@H]1CN(C)C(=O)Cc1ccncc1	.	.	.	7	11	0.7	4.4	i	.
CN(/N=C/c1ccncc1)C1=NS(=O)(=O)c2ccccc21	1%	-1.6	.	.	.	.	.	.	18
CC1CCN(C(=O)CCCC(=O)N2CCC(C)CC2)CC1	-14%	0.4	0.71	3	13	1.7	-0.2	i	-4
COc1ccc(NC(=O)[C@@H]2CCCN2C(=O)c2cccs2)cc1S(=O)(=O)N1CCCCC1	4%	8.3	0.69	-3	-2	2.4	0.9	i	9
COc1ccc(CN(C)C[C@@H]2Oc3ccc(NC(=O)NC(C)C)cc3C(=O)N([C@H](C)CO)C[C@H]2C)cc1	.	.	.	3	5	-0.8	1.2	i	.
C[C@H](CO)N1C[C@H](C)[C@@H](CN(C)S(=O)(=O)c2ccc(F)cc2)Oc2ccc(NC(=O)CCCCCC(=O)Nc3ccccc3N)cc2C1=O	.	.	.	-1	2	-1.2	-2.4	i	.
N#Cc1ccc(OCC(O)CS(=O)(=O)c2ccc(F)cc2)cc1 (centres undefined)	16%	-3.8	0.69	7	8	2.1	-0.7	i	-16
O=C(Nc1ccccc1-c1ccccc1)c1ccc(NC(=O)c2ccco2)cc1	-2%	0.2	0.73	.	.	.	.	.	-23
O=C([C@H]1O[C@@H](n2ccc(=O)[nH]c2=O)[C@H](O)[C@@H]1O)N1CCC(F)(F)CC1	.	3.6	.	11	16	1.7	-0.8	i	.
COc1ccc(NC(=O)Nc2ccc3c(c2)CC(=O)N([C@H](C)CO)C[C@@H](C)[C@H](CN(C)C(=O)Nc2ccc4c(c2)OCO4)O3)cc1	.	.	.	4	9	-1.4	0.2	i	.
Cc1nc2c(C(=O)O)cnn2c(C)c1Cc1ccccc1F	2%	-5.7	0.66	0	-1	-0.9	.	.	-3
COc1ccc(NC(=O)C2CCN(S(=O)(=O)c3cccc4nonc34)CC2)cc1OC	.	2.3	0.71	5	2	-1.7	26*	i	-9
Cc1nc(Sc2nnnn2-c2ccccc2)c(C#N)c(C)c1C	-2%	-2.3	0.75	-6	-12	-2.3	-3.4	i	-2
Nc1c(Cl)ncnc1NCc1cccnc1	0%	-2.9	0.7	1	5	-0.3	-1.4	i	-33
CN1CCC(N(C)C(=S)Nc2ccc(F)cc2)CC1	-6%	-0.6	0.69	11	11	2.7	-3.1	.	2
O=S(=O)(NCCCc1ccccc1)c1ccc(F)c(F)c1	.	1.1	0.66	-9	-15	-3.6	-0.5	i	4
COc1ccccc1CCn1cnc(-c2ccccc2OC)c1CC(C)C	.	.	.	-56	-78	-13	?	i	.
CCCC12C(=O)C(C)(C(c3ccccc3)=C1c1ccccc1)C1C(=O)N(c3ccc(C)cc3)C(=O)C12 (centres undefined)	0%	-2.2	0.7	0	-7	-5.8	-0.3	i	0
Cc1c(N=C2SC(CC(=O)Nc3ccccc3)C(=O)N2CCN2CCOCC2)c(=O)n(-c2ccccc2)n1C (centres undefined)	13%	0.4	0.7	5	9	3.2	-0.7	i	2
CCC(=O)N1CCc2cc(-c3csc(NC(=O)c4ccco4)n3)ccc21	-11%	3.5	0.71	-12	-8	3.0	-5.4	i	-20
CCCCn1nnnc1SCC(=O)N1CCOCC1	1%	-1.3	0.7	.	.	.	.	.	.
COCc1nnc(NC(=O)c2ccc(OC)cc2OC)s1	.	-1.5	0.71	-2	-2	-0.9	-2.6	i	-8
CC1CCCC(NC(=O)COC(=O)c2cc(S(=O)(=O)N3CCCCC3)ccc2N2CCOCC2)C1C (centres undefined)	6%	-1.2	0.67	.	.	.	.	.	-7
CC(=O)Nc1ccc(NC(=O)CN(c2cccc([N+](=O)[O-])c2)S(C)(=O)=O)cc1	11%	3.2	0.65	14	22	4.9	-0.2	.	-9
CCC(=O)N1CCC2(CC1)CN(Cc1ccccn1)[C@H](CO)c1[nH]c3cc(OC)ccc3c12	.	.	.	1	4	-0.4	5.8	i	.
CCOc1ccccc1CNS(=O)(=O)c1ccc2[nH]c(=O)sc2c1	1%	3.3	0.78	.	.	.	.	.	-2
OC[C@@H]1[C@@H](c2ccccc2)C2(CN(Cc3nccs3)C2)N1CC1CCOCC1	.	.	.	2	2	-0.6	-1.5	i	.
O=C(CSc1nc2ccccc2s1)c1cc2ccccc2o1	?	3.0	0.72	-9	7	-0.1	-6.4	i	13
COc1ccc(CCNS(=O)(=O)c2ccc3[nH]c(=O)[nH]c3c2)cc1	-4%	3.3	0.69	7	9	4.2	-3.6	i	0
Cc1noc(NS(=O)(=O)c2ccc(NC(=O)c3ccccc3NS(=O)(=O)c3ccc(F)c(F)c3)cc2)c1C	.	-1.7	0.71	-2	6	-4.0	-0.1	i	.
c1ccc(-n2c(-c3ccco3)nnc2-c2ccco2)cc1	-4%	2.6	0.72	.	.	.	.	.	-1
O=C(/C=C1\SC(=O)NC1=O)Nc1ccc(C(=O)O)cc1	.	2.1	0.7	14	7	0.0	3.0	i	.
CC(=O)Nc1ccc(C(=O)OCC(=O)Nc2ccc(S(=O)(=O)N3CCOCC3)cc2)cc1	-3%	3.4	0.72	-1	-1	0.5	2.2	i	0
O=C1N=C2SCCN2/C1=C\c1ccccc1Cl	2%	-1.3	.	.	.	.	.	.	0
CNC[C@H]1OCCCC[C@@H](C)Oc2ccc(NC(=O)Nc3ccccc3)cc2C(=O)N([C@@H](C)CO)C[C@H]1C	.	.	.	-2	-1	-1.7	7.9	i	.
O=C(NCc1ccco1)c1ccccc1	0%	0.2	0.62	16	26	8.5	-2.8	i	6
Cc1ccc(C2=NCCNC2=O)c(C)c1	4%	1.0	0.64	.	.	.	.	.	-6
CN(C)S(=O)(=O)c1cccc(NC(=O)CN2C(=O)NC(Cc3c[nH]c4ccccc34)C2=O)c1 (centres undefined)	6%	-1.6	0.67	2	4	2.6	0.8	.	0
CN(c1ccccc1)S(=O)(=O)c1ccc(C(=O)N2CCN(c3ccccc3Cl)CC2)cc1	.	-1.6	0.7	6	-6	-2.4	-0.5	i	-8
CC(c1ccccc1)n1c(-c2ccncc2)n[nH]c1=S (centres undefined)	-2%	1.8	0.76	.	.	.	.	.	28
C=CCOc1cccc(C(=O)/C=C2/C(=O)Nc3ccccc32)c1	-11%	-0.7	0.69	5	16	1.6	2.5	i	.
CC(C)(C)OC(=O)N1CCCN(C(=O)Nc2ccccc2)CC1	15%	-3.6	0.66	4	-2	-0.4	-1.1	i	-35
CCOC(=O)C1Nc2ccc(OC(F)(F)F)cc2C2C=CCC12 (centres undefined)	.	-11	0.7	-1	3	2.0	-5.3	i	.
COc1ccc2oc(C(=O)OC(C)C(=O)N3CCC(C)CC3)c(C)c2c1 (centres undefined)	5%	0.4	0.6	.	.	.	-2.0	i	-2
CC(C(=O)Nc1ccc(Cl)cc1)N(C)Cc1cccs1 (centres undefined)	.	-1.9	0.68	-4	-31	-6.5	0.0	i	-1
Nc1c(N(Cc2ccccc2)C(=O)CCc2ccccc2)c(=O)[nH]c(=O)n1Cc1ccccc1	.	0.4	0.71	-5	-6	1.6	1.5	i	-31
CCCNC(=O)N(C)C[C@H]1[C@H](c2ccccc2)[C@@H](CO)N1C(=O)c1ccccc1	.	.	.	-2	-6	-2.3	4.8	i	.
Cc1oc2ccc(OCc3cccc(Cl)c3)cc2c1C(=O)O	-5%	0.6	0.66	-8	-9	-3.0	-12	i	-14
C[C@@H]1CCCCO[C@H](CN(C)Cc2ccncc2)[C@H](C)CN([C@@H](C)CO)C(=O)c2cc(NS(=O)(=O)c3ccc(Cl)cc3)ccc2O1	.	.	.	-6	-16	6.8	-3.1	i	.
Nc1ccn([C@@H]2O[C@H](C(=O)NCc3ccc4c(c3)OCO4)[C@@H](O)[C@H]2O)c(=O)n1	.	-1.0	.	4	9	-7.2	-2.9	i	.

Entries above printed as active in MLL AF4-AF9 inh:
SMILES	Vif A3G	HNF4A DNA FP	Ecoli growth	Ecoli rRNA inh	Ecoli rRNA inh OD600	Ecoli rRNA inh RFP	MLL AF4-AF9 inh	FGF22 binding	ALR H2O2 inh
COc1ccc(NC(=O)C2CCN(S(=O)(=O)c3cccc4nonc34)CC2)cc1OC	.	2.3	0.71	5	2	-1.7	26*	i	-9
